Screens as filed in PubChem BioAssay.
gsp ag = gsp mutant agonism; Potency, µM (highest dose often 76.9 µM), for inactives: at the top dose activation (cAMP increase), hits mostly activators; gsp mutant cells, cAMP HTRF, 30 min; control for the full effect not named in the record; actives 0.13% (n = 340,000); AID 624287; active = well fitted activation curve with a large enough effect; inconclusive = small, poorly fitted or top-dose-only effect, or another doubt; inactive = no such curve, though single readings can be large or run the other way; cell line not stated here;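 also: phosphodiesterase inhibitor Ro 20-1724 added with compounds to block cAMP breakdown; potency is read from the fitted curve at half-maximal effect; nearly all actives have a fitted effect of over 60% in size; about a fifth of the inactives were tested at one dose only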
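Cells stably selected in G418 were plated at 2000/well, grown 16-24 hr, then given compounds in DMSO with the PDE inhibitor […] (300 uM solution added) for 30 min at 37C; cAMP was read by HTRF.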
TRPV1 PAM = enhances activation of the human vanilloid receptor TRPV1 | Q8NER1 | TRPV1-expressing cells, Fluo-8 calcium influx, capsaicin EC20 potentiation; host cell line not named in the record; control for the full effect not named in the record | potentiation, % at 8.33 µM | actives 0.02% (n = 320,000); active means potentiation above 80%; inconclusive means 30% to 80%; inactive means below 30%; also: 0% is about no effect
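Fluo-8 calcium influx in TRPV1-expressing cells, kinetic read (ex 480/em 520 nm). Compound added and read 3 min for agonist activity, followed by capsaicin at EC20 final and 2 min further read for enhancement.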
ClpP mod = qHTS Assay for Activators of ClpP | ATP-dependent Clp protease proteolytic subunit (Bacillus subtilis (strain 168)), P80244 | purified B. subtilis ClpP, FRET peptide cleavage, 20 min | Potency, µM (highest dose often 57.5 µM), without a hit: at the highest dose activity change, negative = active | actives 1.9% (n = 340,000); active = well fitted falling curve with a large enough effect; inconclusive = small, poorly fitted or top-dose-only effect; inactive = no such curve, though single readings can be large or run the other way; also: potency is read from the fitted curve at half-maximal effect; the source files actives as falling curves though it sought activators and does not explain the sign; nearly all actives have a fitted effect of over 65% in size; many hits overshoot -100%
Target sequence (P80244 whole entry, looked up): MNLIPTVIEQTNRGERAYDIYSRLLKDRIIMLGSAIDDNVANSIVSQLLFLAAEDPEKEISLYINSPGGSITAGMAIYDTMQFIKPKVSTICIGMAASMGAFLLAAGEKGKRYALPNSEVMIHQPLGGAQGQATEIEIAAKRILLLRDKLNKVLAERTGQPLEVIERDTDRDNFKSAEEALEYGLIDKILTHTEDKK
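Buffer: 100 mM Tris/HCl pH8, 100 mM KCl, 0.05% low protease BSA, 2.5% glycerol, 0.01% Tween-20. ClpP 10 microg/mL final; 20 min RT; delta FRET normalized to ADEP and DMSO controls.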
D2 potentiator = positive allosteric modulators of human D2 dopamine receptor. potentiation, % (test concentration not listed). actives 0.23% (n = 360,000). DiscoveRx D2 beta-arrestin cells, luminescence, 90 min; 100% = 57 uM dopamine signal; active = potentiation of 50% or more; inconclusive = 30% to 50%; inactive = 30% or less;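 also: compound concentration not given in the record; tested on top of an EC20 dose of dopamine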
Target sequence (P14416 whole entry, looked up): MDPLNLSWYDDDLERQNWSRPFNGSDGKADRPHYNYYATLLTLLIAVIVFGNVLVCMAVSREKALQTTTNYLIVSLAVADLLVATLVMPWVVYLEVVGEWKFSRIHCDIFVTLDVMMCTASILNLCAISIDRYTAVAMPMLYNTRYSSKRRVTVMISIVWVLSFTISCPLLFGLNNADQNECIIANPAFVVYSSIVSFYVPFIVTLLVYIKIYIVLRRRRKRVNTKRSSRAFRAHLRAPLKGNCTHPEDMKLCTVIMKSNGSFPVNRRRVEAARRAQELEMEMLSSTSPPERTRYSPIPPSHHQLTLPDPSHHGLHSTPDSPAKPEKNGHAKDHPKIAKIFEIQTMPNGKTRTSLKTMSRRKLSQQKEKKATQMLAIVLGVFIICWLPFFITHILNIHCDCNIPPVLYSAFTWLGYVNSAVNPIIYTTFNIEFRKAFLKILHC
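PathHunter beta-arrestin assay in DiscoveRx D2 cells. Compounds were added with an EC20 of dopamine (50 nM final) for 90 min at 37 deg C. Luminescence was read 1 h after detection reagent, with 57 uM dopamine as the EC100 control.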
Menin-MLL FL inh = menin-MLL binding inhibition, fluorescein peptide; Fluorescence polarization, fluorescein-MLL peptide displacement from menin; FP activity change, % at 61.4 µM; 290,000 tested, under 10 active; AID 1766; inconclusive = falling polarisation curve, or a change in total fluorescence; inactive = total fluorescence flat and polarisation flat or rising; no compound was filed as active; the % refers to the polarisation; negative = inhibition;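 also: % of control where 0% means no effect; inhibitors lower the polarisation; unlabelled MLL peptide was the positive control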
Sfp PPTase inh = blocks B. subtilis Sfp PPTase activity; Q9F4F7; Biochemical Sfp PPTase activity, qHTS; Potency, µM, inactives show max response, negative = inhibition, most hits filed as inhibitors; actives 3.5% (n = 310,000); active = well fitted inhibition curve with a large enough effect; inconclusive = small, poorly fitted or top-dose-only effect, or another doubt; inactive = no such curve, though single readings can be large or run the other way;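 also: the enzyme is Sfp with the accession as filed and its product quenches rhodamine fluorescence; potency is read from the fitted curve at half-maximal effect; 0% = enzyme reaction without inhibitor and -100% = no enzyme wells; top concentration of the series not given in the record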
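Step 1, compound plus 15 nM Sfp-PPTase, 15 min, room temperature. Step 2, add rhodamine-CoA (5 uM) and BHQ-2-YbbR (12.5 uM). Step 3, read 525/598 nm fluorescence at 0 and 30 min.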
gsp antag = antagonizes gsp, the McCune-Albright syndrome mutation | actives 0.4% (n = 340,000) | gsp-mutant cells, cAMP HTRF, 30 min; control for the full effect not named in the record | Potency, µM (highest dose often 76.9 µM), for the others: at the highest dose activity change, negative = inhibition, most hits filed as inhibitors | AID 624288; active = falling curve of any shape with a large fitted effect; inconclusive = falling curve, mostly with a smaller effect; inactive = flat or rising curve; cell line not stated here;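 also: intracellular cAMP measured with PDE inhibitor Ro 20-1724 present during compound exposure; potency is read from the fitted curve at half-maximal effect; % is scaled to controls: 0 for no effect and ±100 for the full control effect; nearly all actives have a fitted effect of over 65% in size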
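HTRF cAMP measurement after 30 min RT detection following 30 min, 37C compound treatment alongside […] (added as 300 uM solution) in G418-selected cells seeded at 2000/well and grown 16–24 h.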
* marks the source's active call; other numbers are inactive results; ? = inconclusive; . = no result given; [ ] = remark or other dose. This is a random part of the collection. Share with any hit: about 5.1%.

Structure	gsp ag	TRPV1 PAM	ClpP mod	D2 potentiator	Menin-MLL FL inh	Sfp PPTase inh	gsp antag
Cc1ccc(C(=O)N/N=C(/CC(=O)c2cccs2)C(F)(F)F)cc1	-59%[inhibitor]	16	1.2%	-15	9.8	19%	-11%
C/C(=N\O)C(C)NC(=O)c1ccccc1 (stereo not given)	?	-12	0.8%	10	3.0	9%	12%
CCOc1ccc(CCNC(=O)c2cccc(S(=O)(=O)N3CCCCC3)c2)cc1OCC	-13%[15.4 µM]	-24	-1.1%	10	.	.	-6%
COc1ccc(CCNC(=O)CSc2cn(Cc3ccccc3)c3ccccc23)cc1OC	-2%	8	0.2%	-3	0.6	10%	-19%
CCOC(=O)C1=C(C)N(CCCC(=O)O)C(=O)NC1c1ccc(OC)cc1 (stereo not given)	-26%	-13	0.3%	-1	0.6	-3%	5%
C=CCn1c(COc2ccc(OC)cc2)nc2ccccc21	-47%[inhibitor]	8	-0.5%	8	0.7	-1%	-12%
O=C(O)c1ccc(/C=N/NC(=S)NC2CCCCC2)cc1	-4%[15.4 µM]	1	.	-4	-1.1	0%	2%
O=C(Oc1cc(=O)oc2ccccc12)c1ccco1	-18%	21	-3.1%	-18	-1.5	10%	-29%
COc1ccc(/C=C(/NC(=O)c2ccccc2)C(=O)Nc2cccc(C(=O)O)c2)cc1	?	9	0.0%	-4	.	2%	4%
COC(=O)NCCOc1cc(C)ccc1C	-59%[inhibitor]	15	-0.1%	6	4.7	0%	-2%
CC(NC(=O)COC(=O)C12CC3CC(CC(O)(C3)C1)C2)c1ccccc1 (stereo not given)	-9%[15.4 µM]	.	2.7%	-14	.	.	-16%
CCOc1ccc2[nH]c(C(=O)N/N=C/c3cccc(OC)c3OC)cc2c1	16%	-3	3.6%	1	5.0	4%	-11%
CCOc1cc(/C=N/NC(=O)c2cccnc2)cc(Br)c1OCC(N)=O	-4%[15.4 µM]	-4	.	-1	-2.6	18%	2%
O=C(O)CSc1nnc(COc2cccc3ccccc23)n1Cc1ccccc1	5%	-7	.	0	0.2	8%	-3%
Cc1cccc(C)c1Nc1n[nH]c(=S)s1	-23%	.	2.1%	-14	.	.	.

Arranged by formula weight (largest number first): four of the compounds above
Structure	gsp ag	TRPV1 PAM	ClpP mod	D2 potentiator	Menin-MLL FL inh	Sfp PPTase inh	gsp antag
CCOc1cc(/C=N/NC(=O)c2cccnc2)cc(Br)c1OCC(N)=O	-4%[15.4 µM]	-4	.	-1	-2.6	18%	2%
COc1ccc(/C=C(/NC(=O)c2ccccc2)C(=O)Nc2cccc(C(=O)O)c2)cc1	?	9	0.0%	-4	.	2%	4%
CCOC(=O)C1=C(C)N(CCCC(=O)O)C(=O)NC1c1ccc(OC)cc1 (stereo not given)	-26%	-13	0.3%	-1	0.6	-3%	5%
CCOc1ccc2[nH]c(C(=O)N/N=C/c3cccc(OC)c3OC)cc2c1	16%	-3	3.6%	1	5.0	4%	-11%

(further entries)
Structure	gsp ag	TRPV1 PAM	ClpP mod	D2 potentiator	Menin-MLL FL inh	Sfp PPTase inh	gsp antag
Cc1ccc(C(=O)NNc2c3ccccc3nc3ccccc23)cc1	?	-4	.	-14	1.0	25µM*	?
Cc1cc(NC(=O)c2sc(Nc3ccc(F)c(Cl)c3)nc2N)no1	10%[15.4 µM]	7	-0.9%	-5	-1.3	-4%	-8%
COc1ccc(Cc2nnc(NC(=O)C3CCCO3)s2)cc1OC (stereo not given)	-7%	11	1.3%	6	-0.7	-14%	14%
CSc1ncc(Cl)c(C(=O)Nc2cccnc2)n1	-64%[inhibitor]	3	-1.0%	6	0.2	0%	5%
Clc1ccc(-n2nnc(-c3cccnc3)n2)cc1Cl	0%	-13	1.8%	-6	-1.3	-27%	0%
COC(=O)C1=C(C)N(c2ccc(C)c(C)c2)/C(=C/c2ccc(O)cc2)C1=O	7%	1	-1.3%	-7	?	-5%	-10%
CS(=O)(=O)N1CCN(CC(=O)NC2CCCCC2)CC1	-25%[15.4 µM]	?	.	1	-1.0	7%	12%
Cc1nc(C)c(-c2csc(Nc3ccc(F)cc3)n2)s1	29%	0	.	-1	1.6	-31%	?
CCSc1ncc(Cl)c(C(=O)Nc2ccc(S(=O)(=O)Nc3onc(C)c3C)cc2)n1	-13%	.	-1.1%	2	1.1	11%	-2%
COc1ccc(C(=O)N2CCN(Cc3ccccc3C(F)(F)F)CC2)cc1	-3%	7	.	-9	7.9	-10%	3%
CC(C)c1cc(NC(=O)c2ccccc2)cc(C(C)C)c1O	20%	10	.	5	-1.0	-11%	-3%
CC(=O)Nc1ccc(/C=N/NC(=O)c2cccc(S(=O)(=O)N3CCOCC3)c2)cc1	-2%	0	1.5%	17	2.8	-69%	14%
Cc1ccc(NC(=S)NCc2ccccc2)cc1C	4%[15.4 µM]	.	8.4%	-5	.	.	3%
COc1cc(/C=C/C(=O)O)cc(S(=O)(=O)Nc2ccccc2Cl)c1OC	0%	22	-5.1%	-1	0.3	3%	-16%
O=C(COC(=O)CSc1ccc2ccccc2c1)NC1CC1	?	-12	-0.5%	-11	5.6	14%	5%

Full records, quoted from the list. Values in the order: gsp ag, TRPV1 PAM, ClpP mod, D2 potentiator, Menin-MLL FL inh, Sfp PPTase inh, gsp antag
CCSc1ncc(Cl)c(C(=O)Nc2ccc(S(=O)(=O)Nc3onc(C)c3C)cc2)n1 across the screens: -13%, ., -1.1%, 2, 1.1, 11%, -2%
Cc1nc(C)c(-c2csc(Nc3ccc(F)cc3)n2)s1 across the screens: 29%, 0, ., -1, 1.6, -31%, ?

The list goes on:
Structure	gsp ag	TRPV1 PAM	ClpP mod	D2 potentiator	Menin-MLL FL inh	Sfp PPTase inh	gsp antag
CN(C)CCNC(=O)c1c(CSc2ccc(Cl)cc2)noc1C(=O)NCc1ccccc1	.	.	0.4%	-3	.	.	9%
CN(C)c1ccc(C(C(=O)NCc2ccccc2)N(Cc2ccco2)C(=O)c2snc(C(N)=O)c2N)cc1 (stereo not given)	?	18	-2.4%	?	1.4	7%	-30%
Cc1cc(=O)[nH]c(SCC(=O)O)c1C#N	0%	-2	-0.5%	-8	0.0	15%	6%
Cc1c(-c2ccccc2)n(O)[n+]([O-])c1-c1ccccc1	5%	.	-3.3%	-12	.	.	.
CCn1c(CNc2ccc(C)cc2)nnc1SCC(N)=O	-34%[inhibitor]	10	?	-5	1.4	7%	-8%
CCc1nc2ccccc2n1CC(=O)N1CCN(Cc2ccccc2)CC1	-3%[15.4 µM]	9	.	-3	2.9	7%	3%
CC(C)n1c(NCCc2ccccc2)nc2c1c(=O)n(C)c(=O)n2C	4%[15.4 µM]	7	-12%	-4	4.0	0%	-13%
Cc1cc(C(=O)Nc2cc(C)on2)on1	-12%	-4	2.9%	0	-3.0	-1%	3%
COC(=O)c1noc(-c2ccc(C)cc2)n1	-1%	1	-1.0%	-11	0.7	10%	-11%
CCOc1ccc(S(=O)(=O)N2CCCC(C(=O)NCc3cccnc3)C2)cc1Cl (stereo not given)	4%[15.4 µM]	-4	.	-1	-4.5	7%	-1%
N#Cc1c(/N=C/C=C/c2ccccc2)sc2c1CCCC2	13%	3	-0.6%	27	4.0	25µM*	5%
Cc1cccc(-c2nnc(-c3ccc(N)cc3)o2)c1	?	7	28µM*	-1	2.6	?	11%
CC(=O)C1=C(C)NC2(O)c3ccccc3C(=O)C12O (stereo not given)	9%[15.4 µM]	1	.	-17	-1.1	-1%	-4%
CC(C)c1c(O)nc(SCc2ccc(F)cc2)[nH]c1=O	-14%[15.4 µM]	10	-5.7%	-8	2.8	6%	-9%
CCOC(=O)C1=C(c2ccccc2)Nc2ncnn2C1c1cccc(O)c1 (stereo not given)	-1%	5	-0.3%	-9	-0.8	4%	-4%
Cc1ccc(NC(=O)COC(=O)CNC(=O)c2ccc(Br)cc2)c(C)c1	-20%	-1	1.6%	-5	2.1	5%	3%
CCCCn1c(N)c(N(CC(C)C)C(=O)c2ccc(OC)c(S(=O)(=O)N3CCOCC3)c2)c(=O)[nH]c1=O	-30%	.	-1.6%	-1	.	.	12%
Cc1ccc(S(=O)(=O)N/N=C/c2ccccc2O)cc1	-4%	2	0.5%	0	1.8	17%	-6%
